Compound activity: PubChem BioAssay, ICCB-Longwood Screening Facility, Harvard Medical School
KSHV LANA nucl – inhibitors of KSHV LANA-nucleosome binding, primary screen, biochemical, fluorescence polarization, FITC-LANA1-23, chicken nucleosomes | FITC-LANA1-23 / chicken nucleosome fluorescence polarization; stronger effect = lower value | z-score (no concentration beside the values) | 51,000 tested, 0.3% active | AID 720717, 2013;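 active = both repeat wells score below -2 in polarization z-score versus plate sample wells, excluding overly bright wells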;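 note: 100 nL library stock added to about 30 µL; numbers are from one replicate; some results filed as inactive read as strong as hits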
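Assay system: purified chicken nucleosomes with FITC-labelled LANA N-terminal peptide (1-23) / Probe or stimulus: 50 nM FITC-LANA1-23 probe / Compound dosing: pin-transferred compound, 100 nL / Times: compound with peptide–nucleosome mix 10–45 min at room temperature / Technique: fluorescence polarization, 480 nm excitation, 535 nm parallel and perpendicular emission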
BasE inh – BasE siderophore enzyme inhibitors, primary screen, biochemical, Acinetobacter baumannii ATCC 17978, fluorescence polarization. purified BasE, fluorescence polarization binding displacement. inhibition, % (no concentration beside the values). AID 485350, 2010. 84,000 tested, 0.1% active;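 active = both replicates above 25% with normal brightness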;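 note: 0% = negative plate control signal and 100% = positive plate control signal; stock transfer was 100 nL into about 30 µL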
Numbers without * were called inactive; nt = not tested or not shown; & = joins results of further samples.

SMILES	KSHV LANA nucl	BasE inh
CCOC(=O)c1ccc(Nc2nc(Nc3ccc(C(=O)OCC)cc3)nc(N3CCOCC3)n2)cc1	1.84	-1.5
Cc1cc(C)n(-c2ncnc3scc(-c4ccccc4Cl)c23)n1	nt	-1.2
CCOC(=O)c1c(Cl)c2ccccc2n(C)c1=O	-0.827	nt
CCOC(=O)c1cc(-c2ccccc2)sc1NC(=O)CN1CCCC1	2.09	nt
CN(c1ccc(OCC(=O)N2CCOCC2)cc1)S(=O)(=O)c1cccs1	nt	0.1
O=C(NCCO)c1ccc(OC2OCCOC2Oc2ccc(C(=O)NCCO)cc2)cc1 (stereo unspecified)	nt	2.4
CCN(C(=O)CSc1ccc(S(=O)(=O)N(C)C)cn1)C1=CCCC1	nt	-0.3
CS(=O)(=O)N1CCN(C(=O)COc2ccc(F)c(Cl)c2)CC1	1.9	-2.4
O=S(=O)(NCCNc1ncnc2scc(-c3ccccc3)c12)c1ccc(Cl)cc1	nt	-1.0
N#Cc1cc2c(cc1C#N)N1CCCc3cccc(c31)O2	-1.42	15.5
CN=c1sc2ccccc2n1CC(O)c1ccccc1 (stereo unspecified)	-0.465	-0.3
Cc1onc(-c2ccccc2)c1NC(=O)N1CCN(C2c3ccccc3-c3ccccc32)CC1	1.27	-4.0
CCc1ccc(NC(=O)N2CCC3(CC2)OCCO3)cc1	-1.39	1.0
CN1C2CCC1CC(NC1CC3CCC(C1)N3C)C2 (stereo unspecified)	-0.441	4.3
CC(C)Cn1c(=O)c2ccccc2n2c(-c3cc(Cl)ccc3O)nnc12	-0.696	-0.1
O=C(NC1CCCCC1)c1ccc2ccccc2n1	-0.845	0.8
O=C(c1cc(F)cc2c1OCOC2)N1CCN(C(c2ccccc2)c2ccccc2)CC1	-0.115	3.1
O=S(=O)(c1ccccc1)N1CCC(c2nc(-c3ccccc3)no2)CC1	-0.757	2.5
CCCCSc1nnc(-c2ccco2)n1N	0.281	-0.1
Cc1ccc(NC(=O)NCCC(C)C)cc1NC(=O)NCCC(C)C	nt	-0.8
O=C1Nc2ccccc2C1(O)C/C(=N/O)c1ccc2c(c1)OCCO2 (stereo unspecified)	-0.394	2.6
CCCCC(=O)Nc1ncc(Br)s1	-1.1	-2.0
CSc1ccc(C2Nc3ccccc3C(=O)N2c2ccc(C)cc2)cc1 (stereo unspecified)	nt	0.7
O=C(CCc1nc2ccccc2n1-c1ccccc1)NCCO	nt	-0.9
CCOC(=O)C1CCCN(C(=O)CN2C(=O)/C(=C/c3ccc(OC)cc3)Oc3ccccc32)C1 (stereo unspecified)	0.187	-0.9
NC(=O)c1cc(NC(=O)COC(=O)C2CCCCC2)cc(C(N)=O)c1	nt	0.0
CCOC(=O)C1CCN(c2ncnc3nc[nH]c23)CC1	0.419	2.2
[O-]/[N+](=C/c1ccc(F)cc1)c1ccccc1	0.177	2.8
Cc1ccc(OCc2n[nH]c(=S)n2C2CCCCC2)cc1	0.272	-1.5
CC(C(=O)O)N1C(=O)c2ccccc2C1=O (stereo unspecified)	-0.155	-0.6
CC(C#N)OC(=O)c1cc(S(C)(=O)=O)ccc1Cl (stereo unspecified)	nt	-1.1
CCCc1ncc(C(O)c2ccccc2OC)n1C (stereo unspecified)	-0.552	0.1
CNC(=S)Nc1ccc(C(N)=O)cc1	-0.113	-0.8
CCc1c(C)nc2c(C)cccc2c1Cl	0.688	-1.0
Cn1/c(=N/N=C2\C(=O)Nc3c(Cl)cc(Cl)cc32)sc2ccccc21	nt	0.3
NNC(=O)c1ccc(CSc2nc3ccccc3[nH]2)cc1	nt	2.4
O=C(NCCn1cnc2cccnc21)Nc1ccccc1-c1ccccc1	-0.589	5.1
O=C(CSC1CCCC1)c1ccccc1	nt	0.7
CS(=O)(=O)Nc1cc(Cl)ccc1Oc1ccccc1	0.122	-0.7
O=S(=O)(c1ccc(NCCCn2ccnc2)nc1)N1CCCC1	nt	-0.7
N#Cc1ccc(NC(=O)Cn2cnnn2)cc1	nt	2.4
Cc1ccc(/C=C2\C(=O)Nc3ccc(S(=O)(=O)Nc4ccc(F)cc4)cc32)o1	nt	4.0
CC(=O)Oc1cc(-c2ccccc2)nn1C	0.038	nt
CC1CCN(C(=O)C2CCN(Cc3cccc(O)c3)CC2)CC1	-0.573	1.8
N#Cc1cccc(CSc2nnc(-c3ccccc3O)n2Cc2ccccc2)c1	-0.265	-1.6
NC(=O)NN=C1CCN(Cc2ccccc2)CC1	0.007	-0.1
Fc1ccc(-c2ccnc3ncnn23)cc1	0.123	nt
Cc1cc(=O)[nH]c(Nc2nc3ccccc3[nH]2)n1	1.25	-0.4
CNS(=O)(=O)c1cc(C(=O)N2CCN(c3ccccc3)CC2)ccc1OC	1.6	-5.5
Cc1ccc(Cn2ccsc2=NC(=O)COC(=O)Cn2c(C)csc2=O)cc1	nt	-1.4
COc1ccc2o/c(=N\O)c(C(N)=O)cc2c1	-0.512	-0.1
Cc1cc(C(=O)OCc2nnc(-c3ccccc3)o2)c(C)n1-c1ccccc1	nt	2.9
O=C(Cn1cnc2ccccc2c1=O)N1CCSC1c1ccccc1F (stereo unspecified)	nt	-0.8
CCn1cc(C(=O)O)c(=O)c2cc(F)c(N3CCN(C(=O)c4ccccc4F)CC3)cc21	-0.104	0.0
COc1ccc(CNC(=O)c2ccc(Cn3cc(Br)cn3)o2)cc1	0.437	-2.8
Cn1c(CSc2nc3ccccc3s2)n[nH]c1=S	nt	0.4
O=C(Nc1ccc(Nc2nc3c(S(=O)(=O)c4ccc(Br)cc4)nnn3c3ccccc23)cc1)c1ccco1	-0.01	3.3
Cc1nn2c(-c3ccco3)nnc2c2ccccc12	0.042	0.4
Clc1ccc(Oc2ccccc2)c(NC2=NCCC2)c1	nt	-4.3
CC(C(=O)OCC(=O)Nc1ccccc1)N1C(=O)c2ccccc2C1=O (stereo unspecified)	nt	2.5

Full records, looked up by structure. Order of values: KSHV LANA nucl, BasE inh
CNS(=O)(=O)c1cc(C(=O)N2CCN(c3ccccc3)CC2)ccc1OC reads 1.6, -5.5
Cn1c(CSc2nc3ccccc3s2)n[nH]c1=S reads nt, 0.4
O=C(Cn1cnc2ccccc2c1=O)N1CCSC1c1ccccc1F (stereo unspecified) reads nt, -0.8
CC(C(=O)OCC(=O)Nc1ccccc1)N1C(=O)c2ccccc2C1=O (stereo unspecified) reads nt, 2.5
N#Cc1cccc(CSc2nnc(-c3ccccc3O)n2Cc2ccccc2)c1 reads -0.265, -1.6

The list goes on.
SMILES	KSHV LANA nucl	BasE inh
COc1ccc(CC(=O)Nc2ncn[nH]2)cc1OC	0.764	0.9
COC(=O)CCC/C=C1/SCC(NC(=O)c2ccccc2)/C1=N/O (stereo unspecified)	-0.104	1.0
Cc1c(C)c(C)c(CSC(=Nc2ccc(C(C)C)cc2)N2CCOCC2)c(C)c1C	-0.123	nt
Cc1ccc(Oc2ccc3c(c2)C(=O)N(CC(=O)O)C3=O)cc1C	nt	3.9
Cc1cc(C(=O)COC(=O)c2cccs2)c(C)n1Cc1cccs1	nt	-2.0
O=C(NCCCn1ccnc1)Nc1cccc2ccccc12	nt	1.6
CC(NCC(F)(F)F)C1CC1 (stereo unspecified)	nt	1.9
O=C(O)c1ccc2c(c1)sc1[n+]2CCS(=O)(=O)N1	nt	2.5
COC(=O)CC1=C(C(=O)OC)C(c2ccc(C(=O)OC)cc2)C(C#N)=C(N)O1 (stereo unspecified)	0.447	-2.0
Cc1ccc(-c2cn3c(n2)sc2cc(C(=O)NCCN4CCCC4)ccc23)cc1	1.75	-31.7
COc1cc2ccccc2cc1C(=O)OCC#N	nt	1.6
O=C(c1ccccc1)N1CCC(c2nc3ccccc3[nH]2)CC1	0.443	0.1
COc1ccccc1S(=O)(=O)Nc1ccc2nc(C)sc2c1	nt	-0.7
CCOC(=O)c1ccccc1NC(=O)c1ccccc1N(C)S(C)(=O)=O	0.285	-3.2
CCc1ccc2c(c1)c1nnc(SCC(=O)NC3CCCCC3C)nc1n2C (stereo unspecified)	-0.259	1.2
CCOCCCn1c(Sc2ncnc3c2oc2ccccc23)nc2ccccc2c1=O	nt	1.9
NC(=O)N1CCc2ccccc21	nt	2.7
COC(=O)N/N=C(\C)c1ccc(C)c(C)c1	nt	0.0
CCc1nnc2c(NCCCN3CCN(c4ccccc4)CC3)nc3ccccc3n12	nt	0.2
O=C1CCCC2=C1C(c1ccc(Br)cc1)n1nc(-c3ccco3)nc1N2 (stereo unspecified)	nt	-0.3
O=C(Cc1n[nH]c(=O)c2ccccc12)OCc1cc(=O)n2ccsc2n1	nt	-2.2
Cc1ccc(C(=O)OC(C)C(=O)Nc2ccc(S(N)(=O)=O)cc2)s1 (stereo unspecified)	nt	-2.8
COc1ccc(CNc2ccc(C)c(C)c2)c(OC)c1OC	1.56	-1.7
CCn1c(-c2c(Cl)c(C)nn2C)n[nH]c1=S	-0.226	1.7
CC1CC(=O)Nc2ccccc2N1C(=O)Nc1ccccc1 (stereo unspecified)	-1.22	-0.1
Nc1nnc2sc(SCC(=O)O)nn2c1=O	0.139	0.3
Cc1ccc(NCCCCO)c(C)c1	0.058	1.7
O=C1CCN(C(=O)Cn2c(C(F)(F)F)nc3ccccc32)CC1	nt	0.7
Cc1csc2sc(/C=C(\C#N)S(=O)(=O)c3cccs3)c(C)c12	0.306	1.4
Cc1onc(-c2c(Cl)cccc2Cl)c1/C(N)=N/OC(=O)C(C)(C)C	-0.13	1.3
O=C(c1cccc(C(F)(F)F)c1)N(c1ccccn1)C1CCCCC1	nt	-2.9
CCS(=O)(=O)Nc1ccc(C(=O)N2CCN(Cc3ccc4c(c3)OCO4)CC2)cc1	-0.736	-0.7
COC(=O)c1sc(N)c(C(=O)OC)c1COC(=O)[C@H](C)N=C1NS(=O)(=O)c2ccccc21	nt	-0.5
Cc1c(C(=O)N2CCCC2)oc2ccc3c(c12)C(O)CC(C)(C)O3 (stereo unspecified)	-0.289	-1.3
CCCCNC(=O)c1ccc2c(c1)NC(=O)C(CS(=O)(=O)Cc1ccccc1C)N2 (stereo unspecified)	1.05	-7.0
O=c1ccc(-c2ccc(S(=O)(=O)N3CCc4ccccc43)o2)n[nH]1	nt	-7.1
CCOC(=O)c1c(C)c(=O)oc2c1c(=O)[nH]n2-c1ccccc1	nt	3.6
O=C(COc1ccc(F)cc1)N(Cc1ccccc1)c1ccccn1	0.869	-1.1
Clc1ccc(-c2noc(CNC3CCCCC3)n2)cc1	0.84	1.7
Cc1nnc(SCC(=O)N(C2CCCCC2)C2CCCCC2)[nH]c1=O	0.726	-0.8

Three structures from above, arranged by number of heavy atoms, lowest first.
SMILES	KSHV LANA nucl	BasE inh
CCCCC(=O)Nc1ncc(Br)s1	-1.1	-2.0
CCOC(=O)c1c(C)c(=O)oc2c1c(=O)[nH]n2-c1ccccc1	nt	3.6
CCN(C(=O)CSc1ccc(S(=O)(=O)N(C)C)cn1)C1=CCCC1	nt	-0.3

An excerpt from above in order of the KSHV LANA nucl value, rising:
molecule,KSHV LANA nucl
CC1CC(=O)Nc2ccccc2N1C(=O)Nc1ccccc1 (stereo unspecified),-1.22
Cc1nn2c(-c3ccco3)nnc2c2ccccc12,0.042
CCOC(=O)c1cc(-c2ccccc2)sc1NC(=O)CN1CCCC1,2.09

Next structures:
SMILES	KSHV LANA nucl	BasE inh
Cc1nc2ccccn2c1C(=O)N1CCCC(C)C1 (stereo unspecified)	-0.371	0.2
COC(=O)c1ccc(S(=O)(=O)N2CCCN(C(=O)OC(C)(C)C)CC2)n1C	1.65	-0.9
COc1cccc(/C=N/NC(=O)c2cccc(Cl)c2)c1O	0.0265	19.6
CN(C)c1nc(Oc2ccc(=O)[nH]n2)nc(N2CCOCC2)n1	-0.025	-2.0
c1ccc(-c2noc(N3CCCC3)n2)cc1	0.15	-0.2
COc1ccc(CCN2C(=O)/C(=C/c3ccccc3Cl)SC2=S)cc1OC	nt	0.1
CCN(CC)S(=O)(=O)c1cccc(C(=O)N=Nc2c(O)[nH]c3ccccc23)c1	nt	1.7
CNS(=O)(=O)c1ccc(CCC(=O)N2CCCCC2)cc1	0.031	0.4
O=c1cc(CSC2=NCCS2)nc2sccn12	-0.187	-1.4
N#C/C(=C\c1ccc(O)cc1)C(N)=S	nt	2.5
COc1ccccc1N1CCN(S(=O)(=O)c2ccc3c(c2)C(C2CCCC2)C(=O)N3)CC1 (stereo unspecified)	-0.933	-2.1
C=CCNC(=O)c1ccc(OCCCC)cc1	-1.71	0.3
COC(=O)c1sc(NC(=O)CN2CCOCC2)c(C(=O)OC)c1C	nt	3.0
CC(=O)[C@H]1CC[C@H]2[C@@H]3CCC4=CC(=O)CC[C@]4(C)[C@H]3CC[C@]12C	-0.385&0.451&-1.13	-0.4
Cc1oc(-c2ccc(Cl)cc2)cc1COC(=O)Nc1ccccc1	nt	2.2
Cc1nn(C2CCS(=O)(=O)C2)c(Cl)c1/C=C/C(=O)OCCN1C(=O)c2ccccc2C1=O (stereo unspecified)	nt	1.6
CCCn1nc2ccccc2c1P(=NC(=O)Nc1cccc(Cl)c1)(N1CCOCC1)N1CCOCC1	nt	-0.5
CCOC(=O)c1cn[nH]c1NC(=S)Nc1ccccc1	0.267	-3.6
CC1CC1C(=O)Nc1ccccc1C#N (stereo unspecified)	1.45	-4.8
Cc1cc(C(=O)Nc2cccc3ncccc23)no1	nt	0.5
CC(C)c1ccc(N(CC(=O)Nc2ccc3c(c2)n(C)c(=O)n3C)S(C)(=O)=O)cc1	0.849	1.5
CCc1ccc(-c2nn(-c3ccccc3)cc2/C=C2\SC(N)=NC2=O)cc1	nt	-5.0
Cc1c(C)c(C)c(S(=O)(=O)NC(C)(C)C)c(C)c1C	nt	-0.7

These rows are one share of the data. The share of hits here may be higher or lower than overall.
